# Bioassay records from PubChem BioAssay.
# VDR inhibitor: blocks the human vitamin D receptor; P11473; VDR-SRC2-3 peptide fluorescence polarization, 2 h; Potency, µM, for inactives: max response, negative = inhibition, usual class: inhibitors; 400,000 tested, 0.93% active; AID 504847; active means well fitted inhibition curve with a large enough effect; inconclusive means small, poorly fitted or top-dose-only effect, or another doubt; inactive means no such curve, though single readings can be large or run the other way; further: series mostly up to about 120 µM
# Target sequence (P11473 whole entry, looked up): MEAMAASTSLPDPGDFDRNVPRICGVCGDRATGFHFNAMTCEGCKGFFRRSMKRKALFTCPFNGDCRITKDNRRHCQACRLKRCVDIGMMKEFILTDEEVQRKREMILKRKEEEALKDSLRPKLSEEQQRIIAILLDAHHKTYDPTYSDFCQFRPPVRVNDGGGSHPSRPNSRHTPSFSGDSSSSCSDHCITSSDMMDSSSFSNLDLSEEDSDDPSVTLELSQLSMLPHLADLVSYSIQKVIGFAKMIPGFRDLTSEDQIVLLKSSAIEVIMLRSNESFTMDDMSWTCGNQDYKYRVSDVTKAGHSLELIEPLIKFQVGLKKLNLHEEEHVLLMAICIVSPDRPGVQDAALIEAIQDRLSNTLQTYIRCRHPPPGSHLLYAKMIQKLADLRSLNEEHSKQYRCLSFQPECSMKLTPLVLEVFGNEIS
#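 Compounds are added to VDR with labelled SRC2-3 coactivator peptide and held 2 h at room temperature. Inhibition of the VDR–peptide interaction is then read as a change in fluorescence polarization.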
# * = called active by the depositor; ? = inconclusive; & = joins results of further samples. On the % scale 0 is the no-effect control and ±100 the full control effect; potency means the concentration at half of the fitted maximal effect.
entry	Structure	VDR inhibitor
1	CCOC(=O)C1=C(C)N(CCCCCC(=O)O)C(=O)NC1c1ccccc1Cl (centres undefined)	-1.1%
2	Cc1cccc(NC(=O)COc2nsnc2N2CCOCC2)c1	-13.3%
3	c1csc(CNCc2ccncc2)c1	24.2%
4	CCCCNC(=S)N/N=C/c1ccc(OCC(=O)Nc2c(C)cc(C)cc2C)c(OC)c1	18.2%
5	COc1cccc(CSc2nccn2C)c1	-4.9%
6	Cc1ccc(N(CC(O)CON=C2c3ccccc3-c3ccccc32)S(C)(=O)=O)cc1 (centres undefined)	2.2%
7	Cc1ccc(NS(=O)(=O)c2ccc(C)c(C(=O)Nc3ccc(S(=O)(=O)Nc4onc(C)c4C)cc3)c2)cc1	?
8	OC1(c2cccc(C(F)(F)F)c2)CCN(c2ncnc3c2[nH]c2ccc(F)cc23)CC1	-9.1%
9	O=C(Nc1nccs1)c1ccc2c(c1)OCO2	13.3%
10	Cn1c(N)c(C(=O)NCc2ccccc2Cl)sc1=S	?
11	O=C(Nc1cc(S(=O)(=O)N2CCOCC2)ccc1N1CCCCC1)c1ccccc1Br	89.1µM*
12	S=C(NCc1ccccc1)NCc1cccc(Cl)c1	-1.8%
13	CCOC(=O)C1(Cc2ccc(O)cc2)NC(c2ccco2)C2C(=O)N(c3ccccc3F)C(=O)C21 (centres undefined)	21.5%
14	Cc1ccccc1NC(=O)CN(C)S(=O)(=O)c1ccc(-c2ccc(=O)[nH]n2)s1	-6.6%
15	C=CCn1c(COc2ccc(F)cc2)nnc1SCC(=O)Nc1cccc(S(N)(=O)=O)c1	11.1%
16	Cc1cc(NC(=O)COc2cccnc2[N+](=O)[O-])no1	-13.7%
17	Cc1ccc(C(=O)CSC2=C(C#N)C(c3ccco3)C3=C(CC(C)(C)CC3=O)N2)cc1 (centres undefined)	29.1%
18	COc1ccccc1NC(=O)NCC1CC1(Cl)Cl (centres undefined)	-10.1%
19	O=C(NC1CCCCC1)C(c1ccncc1)N(C(=O)c1csnn1)c1cccc(F)c1 (centres undefined)	3.8%
20	CN(C)CCNc1c2c(nc3ccccc13)CCC2	-1.0%

# VDR inhibitor, what is marked active above.
entry	Structure	VDR inhibitor
11	O=C(Nc1cc(S(=O)(=O)N2CCOCC2)ccc1N1CCCCC1)c1ccccc1Br	89.1µM*

# (next part)
entry	Structure	VDR inhibitor
21	COc1ccc(C(c2nnnn2Cc2cccs2)N2CCN(c3ccc(F)cc3)CC2)cc1OC (centres undefined)	-27.3%
22	CCN(C(=O)COC(=O)c1cc(=O)c2ccccc2o1)c1c(N)n(Cc2ccccc2)c(=O)[nH]c1=O	-14.1%
23	O=C(CCCN1C(=O)c2ccccc2C1=O)Nc1c(C(=O)C2CC2)oc2ccccc12	5.5%
24	O=C(CCCn1c(=O)c2sccc2n(CC(=O)NCc2ccco2)c1=O)NCc1ccco1	-3.4%
25	CCc1cccc2c(C(=O)CN3C(=O)NC4(CCCCC4)C3=O)c[nH]c12	8.1%
26	C/C(=N\NC(=O)CSc1ncccn1)c1ccc2c(c1)OCCO2	4.5%
27	CN(C)c1ccc(-c2nn3c(-c4cc(-c5ccccc5)n[nH]4)nnc3s2)cc1	5.9%
28	Cc1nn(C)cc1NC(=O)CC12CC3CC(CC(C3)C1)C2	-9.4%
29	CCN1C(=O)N(S(=O)(=O)c2ccc(C)cc2)[C@@H](c2ccccc2)C(C(=O)OC)=C1C	0.7%
30	O=C(O)CNC1=NCCCCC1	3.4%
31	COc1ccc(N2CCN(C(=O)CN3c4cccc5cccc(c45)S3(=O)=O)CC2)cc1	15.9%
32	CSc1ccccc1C(=O)Nc1cc(C)ccc1C	-17.3%
33	CN1CCc2c(sc3c2C(=O)NC(/C=C\c2ccccc2)N3)C1 (centres undefined)	6.3%
34	Cc1ccc2c(c1)nnn2C1CCN(C(=O)C2CCCCC2)CC1	3.4%
35	CCC(=O)Nc1ccc(C(=O)CSc2nnc(-c3ccccc3F)n2CCc2ccccc2)cc1	-7.6%
36	Cc1cn2c(=O)c(C(=O)N3CCN(c4ccccc4F)CC3)cnc2s1	-0.7%
37	O=C(Nc1ccc2nn(-c3ccccc3)nc2c1)c1ccc2c(c1)OCCO2	9.0%
38	CCOc1ccccc1C(=O)NCC(=O)NNC(=O)c1cccc(S(=O)(=O)Nc2ccc(OC)cc2)c1	-6.2%
39	COc1ccc(S(=O)(=O)N2CCCCCC2)cc1C(=O)N(C)CCOc1ccc(Cl)cc1	11.1%
40	CC(/C=C/c1ccccc1)=N/NC(=O)Cn1nnc(N)n1	2.9%

# A run of entries taken from the entries so far:
entry	Structure	VDR inhibitor
37	O=C(Nc1ccc2nn(-c3ccccc3)nc2c1)c1ccc2c(c1)OCCO2	9.0%
38	CCOc1ccccc1C(=O)NCC(=O)NNC(=O)c1cccc(S(=O)(=O)Nc2ccc(OC)cc2)c1	-6.2%
39	COc1ccc(S(=O)(=O)N2CCCCCC2)cc1C(=O)N(C)CCOc1ccc(Cl)cc1	11.1%
40	CC(/C=C/c1ccccc1)=N/NC(=O)Cn1nnc(N)n1	2.9%

# Remaining list, next part.
entry	Structure	VDR inhibitor
41	O=C1Nc2ccc(S(=O)(=O)N(CCO)CCO)c3cccc1c23	-29.5%
42	COc1ccccc1NC(=O)c1sc2nc3n(c(=O)c2c1C)N=C(c1cccc(Br)c1)CS3	5.5%
43	CCC(C(=O)NC(C)(C)C)N(C(=O)c1ccc(Cl)nc1)C1CCCC1 (centres undefined)	0.1%
44	NC1=NS(=O)(=O)NC1c1cccc(Cl)c1 (centres undefined)	-0.8%
45	CC1CCCCC12NC(=O)N(CC(=O)NCCc1ccccn1)C2=O (centres undefined)	17.9%
46	CC1=NN(C(C#N)c2ccccc2)C(c2ccccc2)C1 (centres undefined)	-1.7%
47	CC(=O)Nc1ccc(N=Cc2c(O)ccc3ccccc23)cc1	-10.4%
48	COc1ccc(-c2cnnn2-c2ccc(NC(=O)c3c(F)cccc3F)cc2)cc1	19.8%
49	COc1ccc(CCNC(=O)c2cn(C)c3ccc(S(=O)(=O)N(C)C)cc3c2=O)cc1OC	-7.3%
50	NC(=O)c1sc2cc(C(F)(F)F)cnc2c1-c1cccs1	1.3%
51	Cc1ccc(N(CC(=O)Nc2ccc(Br)c(C)c2)S(=O)(=O)c2c(C)[nH]c(=O)[nH]c2=O)cc1	11.3%
52	O=C(CN1CCc2ccccc2C1)c1cccs1	-11.5%
53	CCC(C(=O)NC1CCCCC1)n1nc(C)c2sc3ccccc3c2c1=O (centres undefined)	-0.8%
54	O=C1C2CCCCN2C(=O)N1CCN1CCN(c2ccc([N+](=O)[O-])cc2)CC1 (centres undefined)	?
55	CC(C)C(=O)N1CCN(c2ccccc2NC(=O)c2cc([N+](=O)[O-])ccc2N2CCOCC2)CC1	1.4%
56	COc1cc(/C=N/NC(=O)COc2c(C)cc([N+](=O)[O-])cc2C)ccc1OC(=O)c1ccccc1Br	-12.1%
57	CCOC(=O)c1c(S(=O)(=O)N2CCC(C(=O)Nc3ccc(F)cc3F)CC2)c(C)n(C)c1C	8.4%
58	CCNc1nc(OC)nc(N2CCC(Cc3ccccc3)CC2)n1	-1.7%
59	O=C1CSC2(C(=O)N(Cc3ccccc3F)c3ccccc32)N1c1ccc(F)cc1 (centres undefined)	-1.5%
60	Clc1ccc2nc(-c3ccc(N4CCOCC4)cc3)c(Nc3ccccc3)n2c1	-3.4%
61	COc1cc(-c2nc(-c3cccc(Cl)c3)c(-c3ccccc3)[nH]2)cc(OC)c1OC	-4.5%
62	O=S(=O)(Nc1ccc(-c2ccc(N3CCCC3)nn2)cc1)c1ccc(Cl)cc1	16.4%
63	CCCc1ccc2oc(C(=O)NCCN3CCCC(C(N)=O)C3)c(C)c2c1 (centres undefined)	6.5%
64	CC(=O)Nc1ccc2nc(-c3ccccn3)[nH]c2c1	-2.6%
65	COc1ccc2c(CNC3CCCCCC3)c(C(=O)O)n(Cc3ccccc3F)c2c1	16.1%
66	O=S(=O)(Nc1ccc2nc(N3CCOCC3)sc2c1)c1ccccc1	-6.0%
67	COc1cccc(NC(=O)CCNC(=O)Cn2ccc3ccccc3c2=O)c1	-14.4%&-15.5%
68	Cc1ccc(S(=O)(=O)NCC(=O)OCC(=O)Nc2cccc(S(=O)(=O)N3CCOCC3)c2)cc1	3.5%
69	Cc1cc(C)nc(-n2ncc3c2CC(c2ccc(C(C)C)cc2)CC3=O)n1 (centres undefined)	-5.9%
70	C[n+]1cccc2ccc3c(c21)OC(N)=C(C#N)C3c1ccccc1 (centres undefined)	-17.3%
71	CCNC(=O)CCC(=O)Nc1cc(Cl)ccc1C	1.1%
72	O=C(CN1C(=O)/C(=C\c2ccco2)SC1=S)Nc1ccc(O)cc1C(=O)O	-12.8%
73	O=S(=O)(c1ccc(Br)c2ccccc12)N1CCOCC1	-18.5%
74	CC1CN(S(=O)(=O)c2ccc(C(=O)Nc3nnc(-c4ccc5c(c4)CCCC5)o3)cc2)CC(C)O1 (centres undefined)	-9.2%
75	Cc1cc(O)c(C(C)C)cc1NC1=NS(=O)(=O)c2ccccc21	-9.1%
76	COC(C/C=C/[C@H](O)[C@@H](C)OCc1ccccc1)OC	-19.5%
77	CC[C@@H](C)CN1C(=O)N[C@@H](CCc2ccccc2)C(C(C)=O)=C1C	2.1%
78	O=CN1CCN(C(=O)C(=O)c2cn(CC(=O)N3CCCCC3)c3ccccc23)CC1	-6.4%
79	COCCCNC(=S)N(CCCN(C)C)Cc1cc2cc3c(cc2[nH]c1=O)OCCO3	15.2%
80	O=C1NC(c2ccc(Cl)cc2)Oc2ccccc21 (centres undefined)	-12.6%
81	COc1ccc2c(c1)O[C@@H](c1ccc3c(c1)OCO3)[C@H](OC(=O)Nc1ccc(C)c(Br)c1)C2=O	-12.8%
82	O=C(NC1CCCCC1)c1cc(Nc2cccc(C(F)(F)F)c2)nc2ccccc12	4.2%
83	CC(=O)Nc1ccc(S(=O)(=O)NC2=C(N3CCN(C)CC3)C(=O)c3ccccc3C2=O)cc1	5.9%
84	Cc1nc2ccccc2c2nc(NC(=O)C(F)(F)F)nn12	-1.1%
85	COc1ccc(N/N=C(/C)c2cnnc(-c3ccccc3)n2)cc1	-11.1%
86	Cc1cccc(N(C(=O)Cn2nnc(-c3ccc(C)o3)n2)C(C(=O)NC2CCCC2)c2ccncc2)c1 (centres undefined)	11.2%
87	C=C(C)CSc1nc2sc3c(c2c(=O)n1-c1ccc(C)cc1)CCN(C)C3	-2.7%
88	COc1cc(OC)c(C2=NOC(C(=O)NCc3cccnc3)C2)cc1Cl (centres undefined)	-7.1%
89	COc1ccc2[nH]cc(CCNC(=O)Nc3cccc(F)c3)c2c1	6.2%
90	Cc1nc2nc(NC(=O)CC(C)C)[nH]n2c(=O)c1Cc1ccccc1	8.6%
91	CCCCc1noc(-c2c(-c3ccccc3Cl)noc2C)n1	10.8%
92	Cc1cccc(OCC(=O)N(Cc2ccc(F)cc2)C2CCS(=O)(=O)C2)c1C (centres undefined)	-1.6%
93	O=C1CCCCc2sc(Br)c([N+](=O)[O-])c2N1	-27.2%
94	CCCCOc1cccc(C(=O)NC(=S)Nc2cccc(NC(=O)c3ccccc3Cl)c2)c1	-4.9%
95	O=C(N/N=C/C=C/c1ccccc1)C1CC1c1ccccc1 (centres undefined)	-3.6%
96	CSc1nsc(SCc2ccc(F)cc2)n1	1.4%
97	C=CCNC(=O)c1onc(CSc2ccc(C(C)C)cc2)c1C(=O)O	-13.3%
98	CCc1cc2c(=O)c(-c3nc4ccccc4n3C)coc2c(CN2CCOCC2)c1O	-1.9%
99	COc1cccc(C(=O)CC(=O)C(=O)Nc2ccc([N+](=O)[O-])cc2C)c1	-6.7%
100	CCN(CC)C(=O)N1CCN(c2c([N+](=O)[O-])c(=O)oc3ccccc23)CC1	-2.7%

# (listing goes on)
entry	Structure	VDR inhibitor
101	Cc1ccc(-n2nc3c(=O)n(CCCC(=O)N4CCC(C)CC4)nc(C)c3c2C)cc1	-5.0%
102	Cc1ccc(CNC(=O)C23CN(Cc4ccccc4)CC2C(c2cccc([N+](=O)[O-])c2)=NO3)cc1 (centres undefined)	0.4%
103	Cc1cccnc1CCNC(=O)CCc1nnc(CCc2ccccc2)o1	-5.9%
104	CC(C)c1ccc(/C=C/C(=O)N2CCOCC2)cc1	-25.9%
105	Cc1noc2ncnc(Oc3ccc(C(C)(C)C)cc3)c12	-14.0%
106	O=C(COc1cccc2cccnc12)N/N=C1\SCC(=O)N1Cc1ccco1	-0.8%
107	COc1ccccc1N/C(N)=N/c1nc(C)cc(C)n1	6.4%
108	CN1CCSc2ccc(C(=O)NCc3cccc(Br)c3)cc21	-12.5%
109	O=C(Nc1cccc(F)c1)N1CC2(CCN(C(=O)c3csnn3)CC2)C1	0.4%
110	CCCCNS(=O)(=O)c1ccc2nc(SCC(=O)Nc3ccccc3Cl)[nH]c2c1	-15.6%
111	COCCC(=O)NNS(=O)(=O)c1ccc(Cl)cc1	-9.7%
112	Cc1c(C(=O)N(C)Cc2ccccc2)sc2nc(-c3ccc(F)cc3)cn12	4.9%
113	Nc1cc(=O)[nH]c(SCC(=O)Nc2ccc(Cl)c(Cl)c2)n1	30.0%
114	Cc1ccc(Cl)cc1N1CCN(C(=O)c2cn(C)c3ccc(S(=O)(=O)N(C)C4CCCCC4)cc3c2=O)CC1	-5.3%
115	CCc1ccccc1NC(=O)C1CCN(S(=O)(=O)c2cn(C)cn2)CC1	20.2%
116	CC12COC3(C(=O)Nc4cccnc4)CC1CCC32C (centres undefined)	-1.3%
117	CCCCC(=O)OCc1cc(=O)n2nc(C3CC3)sc2n1	1.1%
118	CC(C)C(=O)N(Cc1cc2ccccc2[nH]c1=O)C(C)C	19.6%
119	Cc1c(NC(N)=O)c(=O)n(-c2ccccc2)n1C	6.8%
120	CC(C)(CNC(=O)c1cccs1)CNC(=O)c1cccs1	13.6%

# A different layout for 2 compounds above:
103) Cc1cccnc1CCNC(=O)CCc1nnc(CCc2ccccc2)o1
  VDR inhibitor: -5.9%
104) CC(C)c1ccc(/C=C/C(=O)N2CCOCC2)cc1
  VDR inhibitor: -25.9%

# The list is partial; the hit share may differ from the screen's.
